# Screening data as filed in PubChem.
# KCNQ2 pot: potentiators of rat KCNQ2 potassium channel; Potassium voltage-gated channel subfamily KQT member 2 (Rattus norvegicus), O88943; CHO-K1 KCNQ2, FluxOR thallium flux fluorescence; hits give high values; B-score at 10 µM; 310,000 compounds, 0.54% hits; AID 2239, 2010;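 active = fluorescence ratio B-score at least 3 SD of library B-scores, with initial fluorescence B-score within 3 SD, cut at about 5.3 in these data; same plate scores as AID 2156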;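 also: B-score of peak minus minimum over baseline fluorescence ratio after K+ and Tl+ stimulus; positive B-score means potentiation of KCNQ2 with more thallium influx and brighter signal; only the inactives scoring about 0 or higher are listed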
# Target sequence (O88943 whole entry, looked up): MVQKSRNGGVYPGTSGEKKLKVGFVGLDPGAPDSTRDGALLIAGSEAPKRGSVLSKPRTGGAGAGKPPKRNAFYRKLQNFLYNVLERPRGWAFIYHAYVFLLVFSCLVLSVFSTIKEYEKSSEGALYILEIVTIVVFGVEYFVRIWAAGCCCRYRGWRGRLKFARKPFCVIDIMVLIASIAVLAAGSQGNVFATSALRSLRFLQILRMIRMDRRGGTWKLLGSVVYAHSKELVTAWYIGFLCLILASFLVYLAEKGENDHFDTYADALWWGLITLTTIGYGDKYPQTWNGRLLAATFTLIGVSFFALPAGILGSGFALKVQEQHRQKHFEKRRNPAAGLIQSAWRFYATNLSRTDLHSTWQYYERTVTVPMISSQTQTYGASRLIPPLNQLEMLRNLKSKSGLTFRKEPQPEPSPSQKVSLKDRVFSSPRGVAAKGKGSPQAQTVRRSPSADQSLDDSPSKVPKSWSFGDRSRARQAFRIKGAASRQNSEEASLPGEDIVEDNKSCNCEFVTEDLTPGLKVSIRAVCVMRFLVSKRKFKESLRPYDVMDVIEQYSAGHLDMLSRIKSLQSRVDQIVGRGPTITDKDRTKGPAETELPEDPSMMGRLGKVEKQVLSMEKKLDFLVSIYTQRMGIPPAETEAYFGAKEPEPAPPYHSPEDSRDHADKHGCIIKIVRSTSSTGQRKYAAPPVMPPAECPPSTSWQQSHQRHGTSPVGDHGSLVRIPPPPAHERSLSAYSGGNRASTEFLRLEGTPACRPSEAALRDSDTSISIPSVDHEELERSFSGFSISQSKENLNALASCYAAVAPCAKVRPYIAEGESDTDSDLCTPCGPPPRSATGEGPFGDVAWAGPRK
# KCNQ2 pot baseline: also measured in KCNQ2 pot; calls as there; B-score; compound at 10 µM; measured here: initial fluorescence intensity artifact check;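 brightness before thallium and not channel activity; 0 = typical well and far values either way flag optical interference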
# An asterisk follows results filed as active; · = not tested or not shown. Only part of the results is shown (hit frequency here may not be typical).
# Every second line gives: KCNQ2 pot baseline | KCNQ2 pot
> CCOc1ccc(C(C(=O)NCC2CCCO2)N(C(=O)c2snc(C(N)=O)c2N)c2ccc3c(c2)OCCO3)cc1 (configuration not stated)
  -0.06 | 0.51
> CCCS(=O)(=O)N1CCc2cc(OC)c(OC)cc2C1
  0.28 | 0.82
> O=C(COc1ccccc1)N1CCN=C1SCc1ccc(F)cc1
  0.72 | 0.01
> C[C@H]1C[C@@H]2[C@H]([C@@H](O)C[C@@]3(C)[C@H]2CC[C@]3(O)C(=O)CO)[C@@]2(C)C=CC(=O)C=C12
  -0.17 | 2.6
> CC(NC(=S)NCCc1ccccc1)C(c1cccs1)N1CCN(C)CC1 (configuration not stated)
  -0.95 | 1.3
> O=C(NCc1ccccc1)c1ccc(Cn2cc(C(F)(F)F)ccc2=O)cc1
  0.92 | 0.07
> CCOC(=O)c1ccc2ncc(C(=O)OCC)c(NCc3ccco3)c2c1
  0.21 | 1.6
> Cc1ccc(S(=O)(=O)Nc2cccc(-n3cnnn3)c2)cc1
  0.4 | 1.2
> COc1cc(NC(=O)CN2c3ccccc3CC2C)cc(OC)c1OC (configuration not stated)
  -1.3 | 0.18
> CC(C)CCn1c(=O)c(C(=O)N/N=C/c2cccc(F)c2)c(O)c2ccccc21
  2.3 | 0.14
> CCCOc1ccc(-c2nnc(-c3ccco3)o2)cc1
  -0.77 | 0.43
> COC(=O)C1NC(=O)N2C(C(=O)OC)C(C)(C)S[C@H]12 (some centres not stated)
  1.5 | 1.8
> O=C(C1CCCN1S(=O)(=O)c1cccc2nsnc12)N1CCN(c2ccccc2)CC1 (configuration not stated)
  0.05 | 0.07
> COc1ccc(C(=O)N/N=C2\SCC(=O)N2Cc2ccc3c(c2)OCO3)c(OC)c1
  1.5 | 0.74
> Cc1ccc(N=c2c([N+](=O)[O-])nn(-c3ccccc3)n2O)c(C)c1
  -1.5 | 1.3
> CCCCC(=O)Nc1ccc(NC(=O)c2ccccc2[N+](=O)[O-])cc1OC
  -0.99 | 0.96
> Cc1ccc(S(=O)(=O)NC(CC(C)C)C(=O)N2CCCC2)cc1 (configuration not stated)
  0.16 | 0.82
> COc1c(C)cc(S(=O)(=O)NCc2ccccn2)c(C)c1C
  -0.61 | 0.4
> Cc1ccc(S(=O)(=O)CCC(=O)OCC(=O)N2CCN(S(=O)(=O)c3ccccc3)CC2)cc1
  0.36 | 0.02
> COc1ccc(Cc2noc(CN(C)CC3(N4CCOCC4)CCCCC3)n2)cc1OC
  -1.7 | 1.1
> Cc1ccc2[nH]c(=O)c(CN(Cc3cccnc3)C(=S)NCCCN(C)C)cc2c1
  -0.95 | 1.9
> CC(=O)c1ccc(C(=O)NC2CC(C)(C)Cc3c2cnn3-c2ccccc2)cc1 (configuration not stated)
  -0.45 | 0.98
> CCOc1ccc(-c2nnc3n2N=C(c2ccc(OC)cc2)CS3)cc1
  -3 | 1.4
> CC1(C(=O)NNC(=O)C2CCCCC2)CC1(Cl)Cl (configuration not stated)
  -1.1 | 0.22
> CC1(C)CC(=O)C(C(O)c2ccccc2)C(C)(C)N1 (configuration not stated)
  -0.1 | 0.63
> Cc1ccc(C)c2[nH]c(=O)c(CCNC(=O)c3ccc(S(=O)(=O)N4CCCC4)cc3)cc12
  -0.98 | 0.77
> CCOc1ccc(CNC(=O)C2CC(=O)N(C3CCCC3)C2)cc1OC (configuration not stated)
  -0.13 | 0.02
> O=C(Nc1ccc(-c2cn3ccsc3n2)cc1)c1ccc(F)c(S(=O)(=O)N2CCOCC2)c1
  -0.61 | 0.16
> Cc1ccc(NC(=O)CSc2ccc(C(N)=O)cc2[N+](=O)[O-])cc1
  -2.4 | 0.74
> Cc1ccc2c(c1)sc(C)[n+]2CCCS(=O)(=O)[O-]
  0.13 | 1.1

# Next part; the last six above are carried over.
# Every second line gives: KCNQ2 pot baseline | KCNQ2 pot
> CC1(C)CC(=O)C(C(O)c2ccccc2)C(C)(C)N1 (configuration not stated)
  -0.1 | 0.63
> Cc1ccc(C)c2[nH]c(=O)c(CCNC(=O)c3ccc(S(=O)(=O)N4CCCC4)cc3)cc12
  -0.98 | 0.77
> CCOc1ccc(CNC(=O)C2CC(=O)N(C3CCCC3)C2)cc1OC (configuration not stated)
  -0.13 | 0.02
> O=C(Nc1ccc(-c2cn3ccsc3n2)cc1)c1ccc(F)c(S(=O)(=O)N2CCOCC2)c1
  -0.61 | 0.16
> Cc1ccc(NC(=O)CSc2ccc(C(N)=O)cc2[N+](=O)[O-])cc1
  -2.4 | 0.74
> Cc1ccc2c(c1)sc(C)[n+]2CCCS(=O)(=O)[O-]
  0.13 | 1.1
> O=C(Nc1ccc2c(c1)OC1(CCCC1)O2)C1CC1
  -1.9 | 3.3
> O=C(Nc1ccnn1C1CCN(C2CCCCC2)CC1)c1ccccc1
  -0.54 | 0.21
> Cc1ccc(NC(=O)C(C)Sc2nnc(-c3cccnc3)n2-c2ccccc2)cc1 (configuration not stated)
  -0.03 | 0.63
> CCC1=Nc2ccccc2-c2nnc(SC)nc2O1
  -0.02 | 0.25
> O=C(NC1CCCCC1)C(c1ccc(F)cc1)N(Cc1ccco1)C(=O)CN1C(=O)c2ccccc2S1(=O)=O (configuration not stated)
  -2.2 | 1.4
> Nc1c(C(=O)NCCc2ccccc2)nnn1Cc1ccccc1
  1.5 | 0.07
> Cc1ccc(NC(=O)COC(=O)CCC(=O)c2cccs2)c(C)c1
  -0.33 | 0.79
> O=C(c1ccc(S(=O)(=O)N2CCCC2)cc1)N1CCCCCC1
  -0.76 | 0.25
> N#C/C(=C(/O)COC(=O)CSc1ccc2ccccc2c1)c1nc2ccccc2[nH]1
  1.7 | 0.86
> O=C(Nc1cccnc1)C1CCN(S(=O)(=O)c2cccc3nonc23)CC1
  -1.4 | 0.89
> COc1ccc(OC)c(-c2nnc(SCC(=O)N3CCCC3)o2)c1
  0.08 | 1.3
> c1cncc(CNc2ncnc3sc4c(c23)CCC4)c1
  -0.01 | 1.5
> C=C1CCN([C@@H](CC(C)C)C(=O)N2CCOCC2)S(=O)(=O)c2ccccc21
  -0.5 | 1.2
> N#C/C(=C(/O)c1ccc(C(=O)c2ccccc2)cc1)c1nc2ccccc2[nH]1
  -0.8 | 0.09
> O=C(CN1C(=O)C2C3C=CC(C3)C2C1=O)OCC(=O)c1ccccc1 (configuration not stated)
  -0.03 | 0.54
> COc1ccccc1NC(=O)c1sc2ncn(Cc3ccc(C)cc3)c(=O)c2c1C
  -0.95 | 0.15
> NC(=O)c1c(NC(=O)CN2C(=O)NC(Cc3ccccc3)C2=O)sc2c1CCC2 (configuration not stated)
  1.6 | 1.6
> CNC(=S)N1CCN(c2ccc([N+](=O)[O-])cc2)CC1
  0.18 | 0.64
> COc1ccc(/C=C2\SC(=O)NC2=S)cc1OC
  -0.03* | 5.9*
> CC(C)(C)NS(=O)(=O)c1ccc(CCC(=O)NCc2ccco2)cc1
  1.3 | 0.14
> Cc1ccnc(NC(=O)Nc2cccc(F)c2)n1
  -0.88 | 1.3
> COC(=O)c1ccc(CNC(=O)COC(=O)Cc2ccsc2)cc1
  0.02 | 1.4
> COC(=O)Nc1ccc2c(c1)N(C(=O)CCN(C)C)c1ccccc1CC2
  -0.16 | 0.98
> O=C(NCCc1ccccc1)c1ccccc1[N+](=O)[O-]
  -1.3 | 0.11
> Cc1c(Cl)cccc1NC(=O)CSC(N)=O
  5.4 | 4.6
> Cc1ccc(NC(=O)c2ccncc2)cc1S(=O)(=O)N(C)C
  0.6 | 0.14
> CCN(CC)C(=O)C(=O)N/N=C/c1ccc(Cl)cc1Cl
  -0.39 | 0.67
> O=C(CSc1ccccc1)Nc1ccc(C(=O)Nc2cccc(O)c2)cc1
  1.8 | 0.94
> Cc1cc(C)cc(N(C(=O)c2csnn2)C(C(=O)NC(C)(C)C)c2ccccn2)c1 (configuration not stated)
  -1.5 | 0.06
> CN(Cc1ccccc1)C(=O)C1CCN(S(=O)(=O)c2ccc3nc4c(c(C(=O)O)c3c2)CCCC4)CC1
  -1.6 | 0.7
> Cn1c(=O)c2c(nc(CN3CCN(C(=O)c4ccco4)CC3)n2Cc2ccccc2)n(C)c1=O
  -0.57 | 0.08
> O=C(NCCc1c[nH]c2ccccc12)C(=O)NCC1OCCN1S(=O)(=O)c1cc(F)ccc1F (configuration not stated)
  -0.38 | 1.1
> CCc1n[nH]c(=S)n1/N=C/c1ccccn1
  0.78 | 1.8
> c1ccc2c(c1)nnn2CNc1nccs1
  -0.41 | 1
> C/C(=N\Nc1ccc([N+](=O)[O-])cc1)c1cc2ccccc2o1
  -0.23 | 0.42
> CCOc1ccc(OCC)c(NC(=O)CSc2nnc(C3CC3)n2CC)c1
  0.56 | 0.07
> O=C(CN1C(=O)c2ccccc2C1=O)NCc1ccc(N2CCOCC2)cc1
  2.7 | 0.66
> O=C(CCN1C(=O)C2C3CCC(C3)C2C1=O)OCC(=O)c1ccccc1 (configuration not stated)
  0.82 | 0.1
> c1ccc(CNc2ncnc3sc4c(c23)CCC4)nc1
  -0.47 | 1.3
> Cc1cccc(-n2nc3c(c2NC(=O)C(C)C)CS(=O)(=O)C3)c1C
  0.04 | 0.53
> O=C(O)Cc1sc(-c2ccc(Cl)cc2)nc1-c1ccccc1
  -2.3 | 1.1
> CC1CCCCC12NC(=O)N(CC(=O)Nc1sc3c(c1C(N)=O)CCC3)C2=O (configuration not stated)
  -0.03 | 2
> CCOC(=O)C1CCN(S(=O)(=O)c2ccc3[nH]c(=O)c(=O)[nH]c3c2)CC1
  0.03 | 0.03
> Cn1c(CO)nc2cc(N)ccc21
  -0.65 | 2.2
> COc1ccc(-n2c(=O)c3ccccc3n(CC(=O)NCC3CCCO3)c2=O)cc1 (configuration not stated)
  -0.11 | 0.92
> Cc1ccc(C(=O)N2CC(=O)Nc3ccccc32)o1
  2.8 | 1.1
> CC(OC(=O)COc1cccc2c1OC(C)(C)C2)C(=O)Nc1ccc(S(N)(=O)=O)cc1 (configuration not stated)
  1 | 0.53
> O=C(Cn1cc2c(n1)CCCCC2)NCc1ccccn1
  2.9 | 0.2
> CCOc1ccc(-c2nnn(CC(=O)NCc3ccc(C)cc3)n2)cc1
  -1.3 | 0.51
> COc1ccccc1N1CCN(C(=O)CN(C)S(=O)(=O)c2ccc3c(c2)c(=O)n(C)c(=O)n3C)CC1
  -1.4 | 0.01
> CCOC(=O)c1cccc(NC(=O)/C=C/c2cccc([N+](=O)[O-])c2)c1
  -0.8 | 0.03
> Cc1ccc(NC(=O)CC(=O)c2ccc([N+](=O)[O-])cc2)cc1S(=O)(=O)Nc1cccc(Cl)c1
  0.02 | 0.13
> COc1nc(N/N=C/c2ccc(C)cc2)nc(N2CCCCC2)n1
  -0.52 | 1.5
> O=C(COC(=O)C1CCN(S(=O)(=O)c2cccs2)CC1)NCc1ccc(F)cc1
  -0.3 | 1.5
> O=C1CCN(S(=O)(=O)c2ccccc2)C2CCCCC12 (configuration not stated)
  0.35 | 0.2
> Oc1ccccc1CNc1nccs1
  -0.68 | 1.6
> O=C(O)CC(=O)NC12CC3CC(CC(C3)C1)C2
  · | 0.57
> COc1ccc(OCc2ccc(C(=O)O)cc2)cc1
  0.29 | 0.88
> COC(=O)CC1C(=O)NCCN1C(=S)Nc1ccccc1 (configuration not stated)
  -0.44 | 0.82
> O=C(C1CCN(S(=O)(=O)c2cccc3cccnc23)CC1)N1CCCC1
  -0.76 | 0.09

# (next part)
# Every second line gives: KCNQ2 pot baseline | KCNQ2 pot
> CC(=O)c1ccccc1OCc1ccc(S(=O)(=O)Cc2ccccc2)cc1
  1.2 | 0.11
> O=[N+]([O-])c1ccc(/C=N/N2CCN(c3ccncc3S(=O)(=O)N3CCCCC3)CC2)cc1
  -0.33 | 0.14
> CCn1c(SCC(=O)NC2CCCCC2)nnc1-c1ccco1
  2.9 | 0.91
> Cc1cccc(NC(=O)CSc2nc3ccccc3c(=O)n2C)c1
  0.6 | 0.71
> CCCCCn1c(=O)[nH]c2cc(C(=O)NCCN(CC)CC)ccc2c1=O
  0.04 | 1
> CC(=O)Nc1ccc(S(=O)(=O)NC2(C(F)(F)F)NC(=O)N(c3ccccc3F)C2=O)cc1 (configuration not stated)
  -0.43 | 0.58
> CC(=O)Nc1ccc2c(c1)ncn2-c1ccccc1
  -1.2 | 2.4
> COc1cc2[nH]c(=O)c(C(=O)NCCCN3CCOCC3)c(O)c2cc1OC
  1.6 | 0.13
> COc1ccc(-c2nc(-c3cccs3)no2)cc1
  0.16 | 1.1
> Cc1ccc(S(=O)(=O)c2c(N)n(NC(=O)C3CC3)c3nc4ccccc4nc23)cc1
  -0.83 | 4.9
> Cc1ccc(S(=O)(=O)N2CCCCC2)cc1NS(=O)(=O)c1cccc(C(=O)O)c1
  0.41 | 1.3
> COc1ccc(N(CC(=O)Nc2c(C)n(C)n(-c3ccccc3)c2=O)S(=O)(=O)c2ccc(C)cc2)cc1OC
  -1.2 | 0.15
> C=C(C)CNC(=S)N/N=C\c1ccc2c(c1)OCO2
  0.07 | 2.6
> O=C(CCN1C(=O)c2ccccc2S1(=O)=O)N1CCN(c2ccc(F)cc2)CC1
  0.83 | 0.13
> CCOc1ccc(C2c3[nH]c4ccccc4c3C[C@H]3C(=O)N(C4CC4)CC(=O)N23)cc1OC (some centres not stated)
  0.16 | 0.2
> Nc1cc2c(cc1[N+](=O)[O-])OCO2
  -0.9 | 0.6
> CCOC(=O)/C=C1\SCC(=O)N1CC(=O)c1ccc[nH]1
  -2.3 | 0.12
> O=C(Nc1nnc(CCN2CCCCC2)s1)c1cccc(Cl)c1
  -0.05 | 0.74
> CCN(CC)c1ccc(/C=N/N=C(c2ccccc2)c2ccccc2)c(O)c1
  -1.5 | 1.1
> COc1ccccc1CNC(=O)c1ccc(N2CCOCC2)c([N+](=O)[O-])c1
  1.6 | 0.99
> Cc1c(CCC(=O)N[C@@H](C)C(=O)O)c(=O)oc2cc3oc4c(c3cc12)CCCC4
  1.1 | 2.1
> COc1ccc(NC(=O)CCC2CCCCC2)cc1S(=O)(=O)N1CCCCC1
  -1.6 | 3.4
